Assay outcomes as filed in PubChem.
VDR inh – blocks the human vitamin D receptor; Potency, µM, for inactives: max response, negative = inhibition, hits mostly inhibitors; P11473; AID 504847; 0.93% of 400,000 active; VDR-SRC2-3 peptide fluorescence polarization, 2 h; active means well fitted inhibition curve with a large enough effect; inconclusive means small, poorly fitted or top-dose-only effect, or another doubt; inactive means no such curve, though single readings can be large or run the other way; further: series mostly up to about 120 µM
Target sequence (P11473 whole entry, looked up): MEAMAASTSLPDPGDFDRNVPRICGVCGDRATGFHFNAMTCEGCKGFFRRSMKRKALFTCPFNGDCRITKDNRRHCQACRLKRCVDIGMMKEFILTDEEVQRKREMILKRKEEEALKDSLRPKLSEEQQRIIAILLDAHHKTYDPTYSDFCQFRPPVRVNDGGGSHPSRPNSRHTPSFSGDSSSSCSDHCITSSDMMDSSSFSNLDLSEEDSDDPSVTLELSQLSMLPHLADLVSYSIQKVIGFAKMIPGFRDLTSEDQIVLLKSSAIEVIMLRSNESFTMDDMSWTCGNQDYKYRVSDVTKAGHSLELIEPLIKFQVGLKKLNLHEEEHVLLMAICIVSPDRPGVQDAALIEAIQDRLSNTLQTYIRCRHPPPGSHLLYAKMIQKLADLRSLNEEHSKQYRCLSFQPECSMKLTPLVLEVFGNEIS
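Fluorescence polarization assay of small-molecule disruption of VDR binding to coregulator peptide SRC2-3. Compounds and controls pin-transferred, then read after 2 h incubation at ambient room temperature.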
An asterisk follows results filed as active; ? = inconclusive; & = joins results of further samples; [ ] = dose if it differs, or a comment. On the % scale 0 is the no-effect control and ±100 the full control effect; potency means the concentration at half of the fitted maximal effect. This is a subset; count on the stated rates, not on these rows.

mol | VDR inh
O=C(NCCCN1CCN(c2cccc(Cl)c2)CC1)c1cnn(-c2ccc(F)cc2)c1-n1cccc1 | 6%
CCOC(=O)CCC(=O)N1CCOCCOCCOCC1 | -4%
COCn1cnc(-c2ccccc2)c1-c1ccccc1 | 1%
COc1ccc(C2CC(=O)N(CC(=O)Nc3ccc(C(C)=O)cc3)c3ccccc3S2)cc1OC (centres undefined) | 0%
CCOC(=O)C1=C(C)NC(=S)NC1c1ccc(OCC(=O)N2CCCCCC2)c(OC)c1 (centres undefined) | 4%
CC(=O)N1CCCc2cc(S(=O)(=O)NCc3cccc(C)c3)ccc21 | 11%
O=C(C1=C[C@H](C2CCCCC2)C[C@H](OCCCCO)O1)N1CCN(Cc2ccccc2)CC1 | -11%
Cc1ccc(CNC(=O)C(C)OC(=O)c2cccs2)cc1 (centres undefined) | 6%
Cc1ccc(NC2=Nc3ccccc3N3C2=Nc2c(c(C)nn2-c2ccccc2)C3c2ccc(O)c(O)c2)cc1 (centres undefined) | 4%
CCc1nn(CC(=O)N2CCN(c3ccc(F)cc3)CC2)c(=O)c2cc3occc3n12 | -6%
Cc1ccc(S(=O)(=O)N2CCN(C(=O)c3cc4c(C)nn(-c5ccccc5C)c4s3)CC2)cc1 | 19%
N#Cc1ccc(-c2ccc(OCC(O)CN3CCOCC3)cc2)cc1 (centres undefined) | -1%
Cn1cc(C(=O)N2CCN(c3ccccc3)CC2)c(=O)c2cc(S(=O)(=O)N3CCCC3)ccc21 | 10%&2%
O=C1CN(C(=O)CN2CCOCC2)C(c2ccccc2)c2cc(Br)ccc2N1 (centres undefined) | -8%
CCOC(=O)Cc1ccc(NC(=O)N2CCc3c(sc4c3CCCC4)C2c2ccc(F)cc2)cc1 (centres undefined) | 0%
CCc1ccc[n+](-c2[nH]c(=O)sc2/C=N/N=C(\N)[O-])c1 | 9%
Cc1cccc(NC(=O)Nc2ccc(S(N)(=O)=O)cc2)c1 | 7%
COc1ccc(C2C(C(=O)OCC3CCCO3)=C(C)NC3=C2C(=O)CC(c2ccco2)C3)cc1O (centres undefined) | -9%
COc1ccc(NC(=O)c2ccc(NC(=O)c3nc4nc(C)cc(C)n4n3)cc2)cc1 | 13%
O=C(Nc1cccc(-c2cccc(F)c2)c1)C1CCN(Cc2ccco2)CC1 | -6%
O=C1CN(C(=O)Cc2ccc(F)cc2)C(c2ccccc2)c2cc(Br)ccc2N1 (centres undefined) | -4%
CCC(C(=O)c1ccccc1)P(=O)(NN)c1ccccc1 (centres undefined) | 9%
Cn1c(=O)c2c(nc(Cc3ccc(N)cc3)n2C)n(C)c1=O | 7%
CCOc1ccc(NC(=O)c2ccc(CC)s2)c([N+](=O)[O-])c1 | 5%
Cc1nc(CN2CCN(S(=O)(=O)c3c(Cl)cc(Br)cc3Cl)CC2)cs1 | -26%
CCCCOc1ccc(C2=NNC(=O)CC2)cc1 | -25%
CC12CCC3c4ccc(OCc5ccccc5)cc4CCC3C1CC(O)C2O (centres undefined) | 4%
O=C(Oc1oc(-c2ccco2)nc1C=Nc1ccccc1)c1ccco1 | 28µM*
CCC1Oc2ccccc2N(CC(=O)NCCN2CCCC2)C1=O (centres undefined) | -11%
O=C(NCC1CCCO1)C1CCCN(c2ncccn2)C1 (centres undefined) | 13%
CCOc1ccc(S(=O)(=O)N(CC(=O)NN=C2CCN(C)CC2)c2ccc(C)cc2)cc1 | -16%
Cc1[nH]nc(Nc2ccc(C(C)C)cc2)c1[N+](=O)[O-] | -9%
CC1(C)CC(=O)C(C(=S)Nc2ccccc2)=C(NC2CC(C)(C)NC(C)(C)C2)C1 | 5%
O=C(COc1ccc(S(=O)(=O)N2CCOCC2)cc1)NC1CC1 | -17%
COc1cccc(CN2CCN(C3CCN(c4ccccc4C)CC3)CC2CCO)c1 (centres undefined) | -13%
O=C(CCN1C(=O)COc2ccccc21)N1CCCCC1 | -10%
COc1ccc(NS(=O)(=O)c2ccc(C)c(NC(=O)CN3C(=O)NC4(CCCC4)C3=O)c2)cc1 | -2%
COc1cc([N+](=O)[O-])ccc1NC(=O)CC1SC(=Nc2ccc(F)cc2)N(CCC2=CCCCC2)C1=O (centres undefined) | -6%
CC(C)(C)c1ccc(/C=N/Nc2ccc(C(=O)O)cc2)cc1 | 4%
CC1CCCCC1NC(=O)CSc1nnc(N)s1 (centres undefined) | 1%
O=C(Nc1ccc(F)cc1)N(Cc1nnc2n1CCCCC2)c1ccccc1 | 3%
COc1ccc(C2c3cc4c(cc3OC(NNC(N)=O)C2C)OCO4)cc1 (centres undefined) | -9%
CC1CCCC(NC(=O)CSc2nnc(N)s2)C1C (centres undefined) | 11%
O=C1CCC(=O)N1OCCOc1ccccc1 | 14%
COc1ccc(CN2C[C@H](C)[C@@H](CC(=O)NCc3ccccc3)C2=O)cc1 | 32%[activator]
COc1ccc2nc(N(CCN(C)C)C(=O)c3ccc4c(c3)OCCO4)sc2c1 | 1%
CC(=O)c1ccc(NC(=O)Cn2cnc(S(=O)(=O)N3CCOCC3)c2)cc1 | -4%
CN1CCN(Cc2cc(Cl)c3cccnc3c2OC(=O)c2cccs2)CC1 | -14%
COc1ccccc1-c1oc2ccccc2c1C#CCCO | -16%
O=C(Nc1nc2n(n1)C(c1ccc(F)cc1)C=C(c1ccc(Cl)cc1)N2)c1ccco1 (centres undefined) | 2%
Cc1ccc2scc(N3CCc4ccccc4C3)c(=O)c2c1 | -6%
Cc1ccc(C(=O)CN2C(=O)c3ccccc3S2(=O)=O)cc1 | -1%
C[N+](C)(C)c1ccc(/C=N/Nc2nc(Cl)c(C#N)c(Cl)c2Cl)cc1 | 1%
Cc1cccc(C)c1NC(=O)CN(C)C(=O)CCc1nc2sc3c(c2c(=O)[nH]1)CCCC3 | -21%
CC(=O)Nc1ccc(C2Nc3ccccc3C(=O)N2C2CCCCC2)cc1 (centres undefined) | 0%
O=C(c1ccco1)n1c(=S)nc2ccccn21 | ?

Records listed above that bear a hit mark in VDR inh.
mol | VDR inh
O=C(Oc1oc(-c2ccco2)nc1C=Nc1ccccc1)c1ccco1 | 28µM*

Next section:
mol | VDR inh
O=[N+]([O-])c1ccc(NCCNc2ccc(Cl)nn2)cc1 | 2%
CC1(C)CC(=O)c2c(oc3c(Cl)cc(NS(=O)(=O)c4ccc(Br)cc4)cc23)C1 | -18%
CCOc1ccc(CN(C)C(=O)CNC(=O)C2CCCCC2)cc1OC | -9%
COc1cc(S(=O)(=O)Nc2ccc(C)cc2)ccc1N=Cc1c(C)[nH]n(-c2ccccc2)c1=O | -6%
CCCCCCC(=O)Nc1nc(C)c(-c2csc(Nc3ccccc3OC)n2)s1 | -1%
Cc1ccc2c(c1)nnn2C1CCN(S(=O)(=O)c2ccc(C(=O)N(C)C3CCCCC3)cc2)CC1 | 12%
Cc1ccc(C(=O)NCC(=O)OCc2c(F)cccc2Cl)cc1 | 0%
COc1ccc(-c2c(C(C)=O)c(C)nc3sc4c(c23)NC(c2ccccc2)NC4=O)cc1 (centres undefined) | -10%
COc1ccc(NC(=O)CN2CCCC2c2cccs2)cc1S(=O)(=O)N1CCCCC1 (centres undefined) | -3%
CCN(Cc1ccncc1)C(=O)CC1C(=O)NCCN1Cc1ccc(F)c(F)c1 (centres undefined) | -11%
COCC(C)NCc1cccc2ccccc12 (centres undefined) | 9%
N#Cc1ccccc1NC(=O)COc1c(Br)cc(Br)c2cccnc12 | -1%
Cc1cccc(Cn2c(SCc3ccc(C(=O)NCc4ccccc4F)cc3)nc3cccnc32)c1 | 5%
Cc1ccn2c(Nc3ccc4c(c3)OCO4)c(-c3ccc(N(C)C)cc3)nc2c1 | -11%
Fc1cccc(CCN2CCNC[C@@H]2c2ccccc2)c1 | 4%
CNc1c(NC(=O)c2cc(OC)cc(OC)c2)c(=O)oc2ccccc12 | 1%
O=C(O)C(c1ccccc1)N1C(=O)/C(=C/c2cccs2)SC1=S (centres undefined) | -16%
COc1ccc(Br)c(C(=O)NCC2CCCCC2)c1 | -6%
O=C(NC(=S)Nc1ccc(O)cc1)C1CCCC1 | 14%
O=C(NC1CCSc2ccccc21)c1ccc([N+](=O)[O-])cc1 (centres undefined) | 24%
COc1ccccc1NC(=O)Nc1cccc(NC(C)=O)c1 | 12%
Cc1cccc(N2CCN(C(=O)c3ccc4ccccc4c3)CC2C)c1 (centres undefined) | -5%
Fc1ccc(-c2cc(-c3ccccc3)nc(-n3cccn3)n2)cc1 | 13%
COc1ccc(Cl)cc1NC(=O)Cc1c(F)cccc1Cl | 23%
Cc1ccccc1NC(=O)NC1CCCCCCC1 | -5%
C[C@H](NS(=O)(=O)c1ccc(Cl)cc1)C(=O)OCC(=O)NC(=O)Nc1ccc2c(c1)OCCO2 | -16%
Cc1nc2ccccc2nc1SCC(=O)N1CCC(C)CC1 | 4%
COc1ccc2nc(-c3ccccn3)[nH]c2c1 | ?
Cc1cc(NC(=O)NC(=O)c2ccccc2)no1 | -4%
Cc1cccc(-n2c(SCC(=O)NCc3ccc4c(c3)OCO4)nc3ccccc3c2=O)c1 | -11%
CCc1cccc(C)c1NC(=O)Cn1ccn(-c2ccc(F)cc2)c(=O)c1=O | 17%
COc1cc(/C=C/c2nc(C#N)c(NC3CCCCC3)o2)cc(OC)c1OC | 0%
CCC(=O)c1ccc(N2CCCCC2)c(F)c1 | 0%
CN1/C(=C\C=N\NC(=O)c2ccccc2Br)C(C)(C)c2ccccc21 | -5%
COC(=O)c1ccc(COc2ccc(/C=N/NC(N)=S)cc2)o1 | -3%
CC1CN(C)C(C)c2c1oc1ccc(N)cc21 (centres undefined) | -8%
CNCCC(=O)N1c2ccccc2CCc2ccc(NC(=O)OC)cc21 | -20%
CC(NC(=O)c1cc(S(=O)(=O)N2CCCC2)ccc1Cl)c1ccccn1 (centres undefined) | -13%
Cc1cccc(-n2nc3c(c2NC(=O)c2c(F)cccc2F)CS(=O)(=O)C3)c1C | 4%
COc1ccc(C)cc1NC(=O)Cn1nc(N2CCN(c3ccccc3OC)CC2)ccc1=O | -1%
O=C(NN=Cc1cc(Cl)ccc1[N+](=O)[O-])c1cccc2ccccc12 | -18%
COc1ccc(C(=O)NCCS(=O)(=O)NCc2ccco2)cc1 | 1%
COC(=O)c1c(F)c(F)c(N2CCOCC2)c(F)c1F | 0%
O=[N+]([O-])c1ccc(S(=O)(=O)Nc2nc(-c3ccccc3)cs2)cc1 | -1%
CCN(CC)Cc1c(CC(C)C)oc(C)c1C(=O)O | -17%
c1ccc2nc3c(cc2c1)CCCCC3 | ?
COc1ccc(OC2CCN(S(=O)(=O)c3ccc(F)cc3)CC2)cc1 | 5%
CC(C)C(NC(=O)c1ccccc1)C(=O)OCC(=O)N1CCCCC1 (centres undefined) | 0%

Quoted at random: 7 records from the list
mol | VDR inh
COC(=O)c1c(F)c(F)c(N2CCOCC2)c(F)c1F | 0%
O=[N+]([O-])c1ccc(S(=O)(=O)Nc2nc(-c3ccccc3)cs2)cc1 | -1%
COc1ccc(OC2CCN(S(=O)(=O)c3ccc(F)cc3)CC2)cc1 | 5%
COc1ccc(C(=O)NCCS(=O)(=O)NCc2ccco2)cc1 | 1%
CC(C)C(NC(=O)c1ccccc1)C(=O)OCC(=O)N1CCCCC1 (centres undefined) | 0%
CCN(CC)Cc1c(CC(C)C)oc(C)c1C(=O)O | -17%
O=C(NN=Cc1cc(Cl)ccc1[N+](=O)[O-])c1cccc2ccccc12 | -18%

Six compounds out of the list, sorted by SMILES length, ascending:
mol | VDR inh
c1ccc2nc3c(cc2c1)CCCCC3 | ?
COC(=O)c1c(F)c(F)c(N2CCOCC2)c(F)c1F | 0%
COc1ccc(C(=O)NCCS(=O)(=O)NCc2ccco2)cc1 | 1%
CC(C)C(NC(=O)c1ccccc1)C(=O)OCC(=O)N1CCCCC1 (centres undefined) | 0%
COc1ccc(OC2CCN(S(=O)(=O)c3ccc(F)cc3)CC2)cc1 | 5%
O=C(NN=Cc1cc(Cl)ccc1[N+](=O)[O-])c1cccc2ccccc12 | -18%

Next compounds follow:
mol | VDR inh
COc1ccccc1/C=C/c1nc2ccc(OC(C)=O)cc2c(=O)o1 | -3%
COC(=O)c1sccc1NC(=S)N(C)C1CCCCC1 | -14%
CC1(C)CC(=O)C2=C(C1)NC(=O)CC2c1cc2c(cc1Br)OCO2 (centres undefined) | -4%
O=C(CSc1ccc2nnc(-c3cccnc3)n2n1)NCC1CCCO1 (centres undefined) | -4%
Cc1cnc(NC(=O)CSc2c(Cl)cccc2Cl)s1 | 22%
CCCCNC(=S)N(C)/N=C/c1ccccc1C(=O)O | -4%
COc1ccccc1-c1nc2c(c(SCc3cc(C)ccc3C)n1)Cc1c(CO)cnc(C)c1O2 | 0%
COC(=O)c1ccc(COc2ccc(C3C4=C(CCCC4=O)Nc4onc(C)c43)cc2)cc1 (centres undefined) | -11%
O=C(CSc1nnc(CNC(=O)c2ccccc2F)o1)NC1CCCCC1 | -7%
CC(=O)Nc1nonc1-c1nnc(SCC(=O)Nc2ccc(C)c(Cl)c2)n1C | 4%
CC(C)C[C@H]1CNC(=S)N1CC1CCN(CC2CCCC2)CC1 | -8%
CCc1ccc(-c2nc(SCC(=O)c3c(N)n(C)c(=O)n(C)c3=O)n[nH]2)cc1 | -23%
C=CCc1ccc(OC)c(OC)c1 | -1%
CC(C)(C)OC(=O)NOCC(=O)N(Cc1ccccc1)CC(O)COc1ccccc1 (centres undefined) | 5%
Cc1ccc(NC(=O)CN(C)C(=O)c2cccc(S(=O)(=O)NCc3ccccc3)c2)cc1 | 3%
